# PKD1 kinase inh: inhibitors of human PKD1 kinase; PKD1 kinase fluorescence polarization assay; hit rate 0.056% among 200,000; Q15139; inhibition, %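 (about 10 µM by stock and volumes)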;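 active = inhibition of 50% or more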;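 note: controls were vehicle for no effect and a reference inhibitor for full effect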
# INS promoter inh: TRM-6 insulin promoter activity inhibition; inhibition, % at 2 µM; TRM-6 cells (human fetal islet line), insulin promoter-eGFP reporter, imaging; reporter expression induced with tamoxifen; AID 1273; hit rate 0.9% among 130,000;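 active = inhibition above the mean plus 3 SD, with well images judged a real hit on visual review, cut at about 60% in these data, passing the limit was not always enough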
# HSV replic up: increases HSV replication in cells; HSV replication augmentation in cells, fold increase; maximum fold increase; hit rate 0.005% among 220,000;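 active = peak rise of 1.5-fold or more in the series; tested in PC3 cells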;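 note: first round at 10 µM; read as green reporter fluorescence; hits show the peak of a series up to 25 µM; 1 = signal of infected wells without compound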
# RGS16-Gao HTS: regulators of human RGS16-Galphao interaction; O15492+P09471; bead-based flow cytometry RGS16-Galphao binding, fluorescence; actives lie on both sides; binding response (% of control), % at 10 µM; hit rate 0.38% among 220,000; AID 1441;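 active = below 25% or above 175%, edge rows of some plates excepted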;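 note: Galphao activated by GDP with aluminum fluoride before binding; 100% = wells without compound and 0% = beads without RGS; some results beyond the cut were filed as inactive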
# Target sequence (O15492 whole entry, looked up): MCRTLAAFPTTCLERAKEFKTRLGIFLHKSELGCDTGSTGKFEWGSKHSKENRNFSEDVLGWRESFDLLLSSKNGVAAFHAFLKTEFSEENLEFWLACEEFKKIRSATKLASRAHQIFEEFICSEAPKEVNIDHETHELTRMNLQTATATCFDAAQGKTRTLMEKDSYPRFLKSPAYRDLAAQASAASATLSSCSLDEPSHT
# Target sequence (P09471 whole entry, looked up): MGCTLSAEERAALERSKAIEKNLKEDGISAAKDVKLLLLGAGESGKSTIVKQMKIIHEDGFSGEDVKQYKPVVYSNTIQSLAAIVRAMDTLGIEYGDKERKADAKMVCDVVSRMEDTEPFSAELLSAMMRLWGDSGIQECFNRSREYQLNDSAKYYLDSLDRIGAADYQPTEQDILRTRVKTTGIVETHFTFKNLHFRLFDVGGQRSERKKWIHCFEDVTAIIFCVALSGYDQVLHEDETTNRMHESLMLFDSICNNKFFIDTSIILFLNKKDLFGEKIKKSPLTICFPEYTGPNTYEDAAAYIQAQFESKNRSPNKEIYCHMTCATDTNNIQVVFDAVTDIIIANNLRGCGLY
# GALR2 agonist: agonists of human galanin receptor 2 (GALR2); O43603; AID 803; GALR2-expressing cells, agonist activation read-out; hit rate 0.48% among 140,000; activation, %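 (tested at 5 µM)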;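 active = above mean plus 3 SD of all compounds, about 5% in these data, not always enough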;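 note: 0% = vehicle buffer wells and 100% = reference agonist at full effect; tested in CHO reporter cells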
# Target sequence (O43603 whole entry, looked up): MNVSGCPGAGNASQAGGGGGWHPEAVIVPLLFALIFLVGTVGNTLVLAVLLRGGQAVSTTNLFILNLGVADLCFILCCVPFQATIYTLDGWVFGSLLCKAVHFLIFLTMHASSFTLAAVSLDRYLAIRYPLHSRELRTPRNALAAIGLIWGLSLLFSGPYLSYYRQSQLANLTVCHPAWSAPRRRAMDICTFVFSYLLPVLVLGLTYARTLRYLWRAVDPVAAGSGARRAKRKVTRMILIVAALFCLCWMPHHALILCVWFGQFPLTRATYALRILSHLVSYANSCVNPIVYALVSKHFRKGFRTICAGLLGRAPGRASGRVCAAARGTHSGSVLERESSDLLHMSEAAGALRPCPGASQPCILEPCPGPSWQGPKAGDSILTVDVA
# INS promoter inh cell count: also measured in INS promoter inh; calls as there; normalized cell count, %; measured here: cell count, toxicity; reference of the scale not given here;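 cells exposed to compound for 48 h; stained nuclei by imaging scaled within each plate; lower means fewer cells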
# HSV replic up primary fold: further read-out of HSV replic up, marked with its call; fold increase; compound at 10 µM; measured here: primary screen fold increase 10 uM; tested in PC3 cells;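 GFP signal in the first replicate; 1 = infected wells without compound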
# Numbers without * were called inactive; i = inactive; . = not tested or not shown; [ ] = remark or other dose.
# Sample of the layout:
SMILES,PKD1 kinase inh,INS promoter inh,INS promoter inh cell count,HSV replic up,HSV replic up primary fold,RGS16-Gao HTS,GALR2 agonist
O=C1CC(c2ccccc2)CC(O)=C1C=NC1CCCC1 (stereo not given),-1,.,.,i,1,102,-2.5
Cc1c(-c2ccccc2)nc(N)c(C#N)c1-c1cccnc1,.,.,.,i,0.9,101,.
CC(C)NC(=O)c1onc(CSc2ccccn2)c1C(=O)NC(C)C,.,.,.,i,0.98,104,.
Cc1nc(C)c(N)c(=O)[nH]1,-2,.,.,i,0.95,98,.
Cc1ccc(-c2nsc3c(N4CCC(C(N)=O)CC4)ncnc23)cc1,-7,16,110,.,.,103,0.1
CCOc1ccc(S(=O)(=O)N2CCN(C(=S)NC3CC3)CC2)cc1,-2,-53,97,i,1,89,.

# The whole of this part (from the top)
SMILES,PKD1 kinase inh,INS promoter inh,INS promoter inh cell count,HSV replic up,HSV replic up primary fold,RGS16-Gao HTS,GALR2 agonist
O=C1CC(c2ccccc2)CC(O)=C1C=NC1CCCC1 (stereo not given),-1,.,.,i,1,102,-2.5
Cc1c(-c2ccccc2)nc(N)c(C#N)c1-c1cccnc1,.,.,.,i,0.9,101,.
CC(C)NC(=O)c1onc(CSc2ccccn2)c1C(=O)NC(C)C,.,.,.,i,0.98,104,.
Cc1nc(C)c(N)c(=O)[nH]1,-2,.,.,i,0.95,98,.
Cc1ccc(-c2nsc3c(N4CCC(C(N)=O)CC4)ncnc23)cc1,-7,16,110,.,.,103,0.1
CCOc1ccc(S(=O)(=O)N2CCN(C(=S)NC3CC3)CC2)cc1,-2,-53,97,i,1,89,.
Cc1cccc(OCCNC(=O)c2cncc(Br)c2)c1,-5,-19,123,i,0.87,110,0.9
Cc1nn(Cc2ccc(Cl)cc2)c(C)c1N,3,24,109,i,0.91,78,-0.3
Cc1csc2ncc(C(=O)NCCC(c3ccccc3)c3ccccc3)c(=O)n12,.,.,.,i,0.79,93,.
O=C(CSc1nc2ccsc2c(=O)n1-c1ccccc1)N1CCCC1,7,.,.,i,0.88,102,-2.4
CCOC(=O)c1c(C)nn(Cc2cccc(Cl)c2)c1N,6,33,166,i,1,106,-0.4
CCc1cccc(CC)c1NC(=O)C1CN(S(=O)(=O)c2ccccc2)CCN1S(=O)(=O)c1ccccc1 (stereo not given),3,.,.,i,1,100,0.0
O=C(Cn1c(=O)oc2cc(S(=O)(=O)N3CCCCC3)ccc21)N1CCc2ccccc2C1,15,.,.,i,0.8,97,-1.9
COc1ccc(NC(=O)CC2C(=O)NCCN2C(=O)c2ccc(N(C)C)cc2)cc1 (stereo not given),.,.,.,i,1,110,.
COc1ccccc1C/C(N)=N/OC(=O)c1ccc(C)c([N+](=O)[O-])c1,14,.,.,i,0.92,109,-1.9
O=C(CC1C(=O)NCCN1Cc1ccc(-c2ccccc2)cc1)NCCCn1ccnc1 (stereo not given),.,.,.,i,0.93,103,.
O=C(CSc1nnc(COc2ccccc2F)n1-c1ccccc1)NC1CCS(=O)(=O)C1 (stereo not given),-3,-27,51,i,1,107,-2.0
CCN(c1ccccc1)c1nc2ccsc2c(=O)s1,-3,-258,65,i,1,95,-1.6
O=C(O)c1ccc(CSc2nc(-c3ccc(Cl)cc3)cc(C(F)(F)F)n2)cc1,9,29,95,i,1.2,97,0.7
Cc1cccc(NC(=S)NNC(=O)Cc2ccccc2)c1,-2,.,.,i,1.1,99,0.5
CC12CC3CC(C)(C1)CC(C(=O)NC(=S)N1CCCCC1)(C3)C2,9,67,81,i,1,99,-2.9
O=C(O)C1CC=CCC1C(=O)Nc1cccc(F)c1 (stereo not given),-6,-56,97,i,1.1,103,0.1
CC12CN3CCN(CC(C3)/C1=N\NC(=O)Nc1cccc(Cl)c1)C2,-1,.,.,i,0.96,103,.
O=C(Cn1nc2ccccc2n1)N/N=C/c1ccc(F)cc1,.,.,.,i,0.92,99,.
CCOC(=O)c1cccc(NC(=O)CSc2nc(N)cc(N)n2)c1,-1,0,131,i,0.83,114,-0.7
Cc1ccc(S(=O)(=O)N(C)c2ccc(OCC(=O)NC3=NCCS3)cc2)cc1,1,.,.,i,0.93,94,.
CC1CCCN(C2=C(Cl)C(=O)N(c3cccc(Cl)c3)C2=O)C1 (stereo not given),-14,-6,86,i,1.1,107,-1.4
COc1ccc(OC)c(CN2CCC(CNC(=O)Nc3cccc(Cl)c3)CC2)c1,5,.,.,i,0.99,98,.
Cc1ccccc1NC(=S)/C(=C(\[O-])c1cc(C)n(Cc2ccccc2Cl)c1C)[n+]1ccccc1,-1,.,.,i,1.1,102,.
CCOc1cc(C(=S)N2CCC(O)CC2)ccc1OS(=O)(=O)c1ccc(Br)cc1,3,45,101,i,0.65,100,-3.4
COc1ccc(NC(=O)CN(Cc2ccccc2)S(C)(=O)=O)c(OC)c1,-8,-44,195,i,0.88,101,-2.1
CCOc1[nH]n(-c2ccc(Cl)cc2)c(=O)c1C=NCc1cccnc1,-2,.,.,i,0.95,97,.
COCCNC(=S)N/N=C(\C)c1ccc(O)cc1,7,-40,109,i,0.99,109,-0.7
O=C(NCc1ccc(Cl)cc1)c1cc(=O)[nH]c2ccc(S(=O)(=O)N3CCOCC3)cc12,.,.,.,i,1.1,102,.
COc1ccc(N(CC(=O)NCc2ccncc2)S(=O)(=O)c2ccc(C)c([N+](=O)[O-])c2)cc1,.,.,.,i,0.88,99,.
CCCOC(=O)c1ccc(NC(=O)c2cnccn2)cc1,1,.,.,i,0.99,100,-0.6
NC(=O)c1nn(-c2ccccc2)nc1NC(=O)CN1CCOCC1,.,.,.,i,0.94,97,.
CCN1CCN(c2nc3ccccc3nc2C(C#N)S(=O)(=O)c2ccc(C)c(C)c2)CC1 (stereo not given),-4,42,70,.,.,100,-0.8
Cc1ccc(S(=O)(=O)NCc2ccc(C(=O)N3CCN(c4ccccn4)CC3)cc2)cc1,-2,.,.,i,0.93,106,0.3
O=C(NCc1cccc(C(F)(F)F)c1)C1CCN(c2ncccn2)CC1,-5,-3,86,i,0.97,104,-2.1

# Three of the entries above in order of their number in GALR2 agonist, falling:
smiles | GALR2 agonist
Cc1ccc(S(=O)(=O)NCc2ccc(C(=O)N3CCN(c4ccccn4)CC3)cc2)cc1 | 0.3
COCCNC(=S)N/N=C(\C)c1ccc(O)cc1 | -0.7
O=C(NCc1cccc(C(F)(F)F)c1)C1CCN(c2ncccn2)CC1 | -2.1

# (continued)
SMILES,PKD1 kinase inh,INS promoter inh,INS promoter inh cell count,HSV replic up,HSV replic up primary fold,RGS16-Gao HTS,GALR2 agonist
O=C(NC1CCCCC1)C1(c2ccccc2)CC1(Cl)Cl (stereo not given),-4,-31,74,i,0.96,112,0.3
CCOC(=O)C1CCN(C(=O)/C=C/c2ccccc2)CC1,2,-20,118,i,1.1,101,.
COc1ccccc1CC(=O)N(CCC#N)CCC#N,-5,11,116,i,1,109,-0.8
CC(=O)c1cc(F)c(N2CCN(C(=O)COc3ccccc3F)CC2)cc1C,3,-7,92,i,0.98,100,-2.9
O=C(Nc1ccc2oc(-c3ccncc3)nc2c1)c1c(F)c(F)c(F)c(F)c1F,7,31,136,i,0.93,91,-3.9
CCN1CCN(C(=O)c2ccc3c(c2)S(=O)(=O)c2ccccc2C3=O)CC1,1,.,.,i,1.1,96,.
Cc1cc(C)cc(N(C(=O)c2sc(C)nc2C)C(C(=O)NCc2ccco2)c2ccccc2)c1 (stereo not given),1,-14,44,i,0.89,104,-2.8
CC(C)Nc1nc(Cl)nc(NCCOc2ccccc2)n1,-1,.,.,i,0.93,101,-0.7
CC1=C(C)C(=O)NC(Nc2nc(C)c3cc(C)cc(C)c3n2)N1 (stereo not given),-4,-14,163,.,.,.,0.0
C(=N\n1cnnc1)/c1ccc(OC2CSC2)cc1,-11,.,.,i,0.88,103,-1.6
Cc1c(Cl)cccc1N1C(=O)C2ON(c3ccccc3)C(c3cccnc3)C2C1=O (stereo not given),6,18,105,i,0.78,98,-0.2
COC(C[C@H](O)[C@@H](C)[C@H](O)COCc1ccccc1)OC,.,.,.,i,0.94,100,.
CCC(=O)N1CCN(c2ccc(NC(=O)c3ccc(-c4ccccc4)cc3)cc2)CC1,-7,3,78,.,.,109,-1.8
O=C1c2ccccc2C(=O)N1CCSc1nc2ccccc2c(=O)n1CCCN1CCOCC1,-13,-7,137,i,0.93,102,.
C/C(=N\NC(=O)c1ccc2c(c1)OCO2)c1ccc2c(c1)OCO2,0,.,.,i,0.94,101,.
Cc1ccc(-c2cc(C(=O)N3CCN(c4ncccn4)CC3)c3ccccc3n2)cc1,-17,.,.,i,1,106,-0.4
N#Cc1ccccc1NC(=O)COC(=O)c1ccc2c(c1)OCCO2,-3,57,86,i,0.99,103,0.2
COc1cccc(NC(=O)C(NCC2CCCCC2)c2ccccc2)c1 (stereo not given),2,-31,115,i,0.98,103,-1.9
CCn1c(CSc2nccn2C)nc2cc(C(=O)O)ccc21,-5,.,.,i,1,91,-1.6
CCOC(=O)CC1=C(C(=O)OCC)C(c2ccc(OC)cc2OC)C(C#N)=C(N)O1 (stereo not given),12,.,.,i,0.91,97,-0.7
O=C(N/N=C/c1ccncc1)c1cnccn1,.,.,.,i,0.93,107,.
CCOc1ccc(/C=N/O)cc1,-1,45,67,i,1.1,122,-0.7
CC1(C)CC(=O)C2=C(C1)OC(N)=C(C#N)C21CCN(Cc2ccccc2)CC1,-2,-57,68,i,1.2,102,-0.9
Cc1nnc(SCC(=O)O)s1,-1,-8,91,i,0.97,104,.
CC1CCCN(CC(=O)N2c3ccccc3Sc3ccccc32)C1 (stereo not given),-8,27,98,i,0.9,102,.
O=C(CCS(=O)(=O)c1ccc(Cl)cc1)N1CCN(S(=O)(=O)c2cccs2)CC1,-10,.,.,.,.,109,-2.9
COc1ccc(Nc2nc(-c3c[nH]c4ccccc34)cs2)cc1,-8,8,62,i,0.97,51,-2.0
C/C(=N\NC(N)=O)C1CC(CC(C)C)C(=O)O1 (stereo not given),-4,.,.,i,0.95,109,.
O=C(NN=C1CCCCCCC1)c1ccc(F)cc1,4,35,112,i,0.97,100,.
COCc1cc(C)nc(SCC(=O)Nc2ccccc2C)c1C#N,4,.,.,i,1.1,101,-0.4
Cc1ccc(-c2cccc(C3CC=CC4C3C(=O)N(Cc3ccccc3)C4c3cc(C)ccc3F)c2)cc1 (stereo not given),.,.,.,i,0.78,110,.
CC(=O)N1CCN(Cc2nc3cc(NC(=O)c4ccccc4)ccc3n2C)CC1,-3,0,146,i,0.84,95,-0.7
Nc1cc(N)nc(SCCOc2ccccc2)n1,4,41,147,i,0.85,113,0.0
CN(C)CC/C=C1\c2ccccc2COc2ccccc21,-2,-23,122,i,0.75,100,0.3
CCC(OC(=O)c1cc2sccc2n1C)C(=O)NCC1CCCO1 (stereo not given),7,-84,74,i,0.85,203*[activator],-1.9
Cc1ccc(OCc2nnc(SCC(=O)O)n2N)cc1,-4,-9,94,i,1.1,99,-2.3
O=C(c1ccccc1)c1ccc(C(=O)N2CCOCC2)cc1,1,0,99,i,0.98,101,-0.5
O=C(NCC(=O)N(c1ccc(F)cc1)C(C(=O)NC1CCCC1)c1cccnc1)c1cccs1 (stereo not given),-13,.,.,i,1.1,99,.
C(=C\c1ccccc1)/C=N/Nc1nc(N2CCCCC2)nc(N2CCCCC2)n1,-2,0,106,i,0.74,102,-0.4
O=C(CCC(=O)NNC(=O)COc1ccccc1)NCc1ccccc1,-7,.,.,i,0.8,101,-1.8

# Results in INS promoter inh cell count, for 2 of the compounds above:
mol	INS promoter inh cell count
Cc1ccc(OCc2nnc(SCC(=O)O)n2N)cc1	94
O=C(c1ccccc1)c1ccc(C(=O)N2CCOCC2)cc1	99

# Further records
SMILES,PKD1 kinase inh,INS promoter inh,INS promoter inh cell count,HSV replic up,HSV replic up primary fold,RGS16-Gao HTS,GALR2 agonist
CN(C(=O)COc1ccccc1)c1nnc(C23CC4CC(CC(C4)C2)C3)s1,-11,-37,55,i,0.8,105,-1.1
CCCC(=O)c1ccc(N2CCN(S(=O)(=O)c3ccccc3)CC2)c(F)c1,-6,.,.,i,1,96,-2.8
Cc1ccc(-c2cn(S(=O)(=O)c3cccc([N+](=O)[O-])c3)nc2N)cc1,3,.,.,i,1.1,104,.
CC(C)[C@H](NC(N)=O)C(=O)Nc1ccc(OCc2ccccc2)cc1,-7,-9,202,i,0.93,111,.
Cc1ccc(N(CC(=O)Nc2ccc3c(c2)OCCO3)S(=O)(=O)c2c(C)noc2C)cc1,20,.,.,i,0.9,98,-1.7
CCOC(=O)c1nnn(-c2nonc2N)c1-c1cccc2ccccc12,8,14,53,i,0.83,327,-4.0
CN1CCN(c2ccc(S(=O)(=O)N3CCCCC3)cc2NC(=O)Cc2ccccc2F)CC1,-6,0,128,i,0.99,108,0.3
COc1cccc(NC(=O)CSc2nc3c([nH]c4ccccc43)c(=O)n2C)c1,6,-11,81,i,1,102,.

# From PubChem
